# Source: PubChem BioAssay
# 2A Renilla = Primary qHTS Assay for Foot and Mouth Disease Virus Antivirals against NCGC Sytravon and CBC Compound Libraries: Renilla Luciferase Signal; HEK cells with a luciferase reporter of 2A StopGo recoding; Potency, µM (highest dose often 57.5 µM), without a hit: top-dose signal change, negative = less light; actives 0.32% (n = 120,000); AID 1745857, 2022; active means well fitted falling curve with a large enough effect; inconclusive means small, poorly fitted or top-dose-only effect; inactive means no such curve, though single readings can be large or run the other way; note: nearly all actives have a fitted effect of over 55% in size; overnight with compound
# StopGo FLuc = Primary qHTS Assay for Foot and Mouth Disease Virus Antivirals against NCGC Sytravon and CBC Compound Libraries: Firefly Luciferase Signal; HEK cells with a luciferase reporter of 2A StopGo recoding; Potency, µM (titrated, usually from 57.5 µM), inactives show top-dose signal change, negative = less light; actives 0.23% (n = 120,000); AID 1745856, 2022; active = well fitted falling curve with a large enough effect; inconclusive = small, poorly fitted or top-dose-only effect; inactive = no such curve, though single readings can be large or run the other way; note: nearly all actives have a fitted effect of over 60% in size; overnight with compound
# An asterisk follows results filed as active; ? = inconclusive; [ ] = another dose, or the depositor's remark. % is set by controls: 0 for no effect and ±100 for the full control effect; potency is the fitted concentration of half-maximal effect.
SMILES,2A Renilla,StopGo FLuc
CC(NCCO)C(=O)C12CC3CC(CC(C3)C1)C2 (stereo not given),-7%,-12%
CSc1ccc(Cl)c(C(=O)Oc2cccc(Cl)c2Cl)c1,8%,2%
CCC(=O)N1CCc2cc(CNC(=O)c3ccc(C#N)cc3)ccc21,-8%,-17%
O=C(Nc1noc2ccccc12)c1ccc(F)cc1,4%,75%[activator]
Cc1nn(C(C)C(=O)Nc2cccc(F)c2)c(=O)c2c1sc1ccccc12 (stereo not given),32%[activator],-25%
CCCNc1nc2c(c(=O)[nH]c(=O)n2C)n1CCO,6%,8%
Cc1ccc(Sc2nc(C)cs2)cc1,6%,52%[activator]
CCCCCCCCCCC(=O)N/N=C(/C)c1cccc(NC(=O)c2ccc(Cl)cc2Cl)c1,-6%,29%
Cc1oc2cc(OC(=O)c3ccco3)ccc2c(=O)c1-c1ccccc1,12%,45%[activator]
O=c1c2c3c(sc2n(Cc2ccc(F)cc2Cl)c(=O)n1-c1ccc(Cl)cc1)CCC3,-9%,-9%
CCn1c(=O)cc(SCC(=O)NCc2ccc(OC)cc2OC)c2ccccc21,118%[activator],32%
Cc1ccc(C)c(-n2nnc(C(=O)NC(C)C)c2N)c1,-15%,-12%
COC(=O)c1[nH]c2ccc(F)cc2c1NC(=O)CCN1CCC(C(N)=O)CC1,-16%,-12%
COc1ccc(Cl)cc1NC(=O)COC(=O)c1[nH]c(C)c(C(C)=O)c1C,6%,16%
CCN1CCN(C(=O)c2ccc3c(c2)N(Cc2ccccc2F)C(=O)c2ccccc2S3=O)CC1 (stereo not given),9%,-7%
CCC(=O)Nc1ccc(C(=O)CSc2nnc(C3CC3)n2Cc2ccccc2)cc1,13%,0%
CCCCn1c(=O)[nH]c(=O)c2c1nc(CSc1nnnn1CC(C)C)n2CC,-9%,-4%
Cc1ccc2oc(C(=O)NCC3(N(C)C)CCCCCC3)cc(=O)c2c1,8%,16%
CCCn1nc(C(=O)OCc2nnc(-c3ccccc3)o2)c2ccccc2c1=O,-10%,65%[activator]
C(#CCN1CCN(C(c2ccccc2)c2ccccc2)CC1)COC(c1ccccc1)c1ccccc1,6%,18%
O=C(NCCN1CCN(C(=O)c2ccc(F)cc2)CC1)c1ccc(F)cc1,-9%,4%
CCC(C)NC(=O)Cc1csc(NC(=O)Nc2ccccc2)n1 (stereo not given),15%,61%[activator]
O=C(NCc1cccnc1)c1ccc2c(c1)N(Cc1ccccc1F)C(=O)c1ccccc1S2=O (stereo not given),29%,-5%
O=C(CCc1ncc(-c2ccccc2)o1)Nc1ccc(OCc2ccccc2)cc1,10%,114%[activator]
Cc1cccc(C(=O)N(C)C2CCN(CCc3ccccn3)CC2)c1,-15%,20%
COc1cccc(CNC(=O)C2CCN(C(=O)N3CCOc4ccc(Cl)cc43)CC2)c1OC,-17%,0%
CCCS(=O)(=O)N1CC(=O)N(c2ccccc2C)C(C)(C(=O)NC2CCCC2)C1 (stereo not given),-13%,0%
COCCNc1nc(NCc2cccc(Cl)c2)c2cnn(C)c2n1,?,?
CN(C)CCCN1c2ccccc2Sc2ccc(Cl)cc21,12%,0%[11.5 µM]
O=C(Cc1ccc(-c2ccccc2)cc1)NC1(C(=O)O)CCCCC1,-3%,-1%
CC(OC(=O)c1ccc2c(c1)NC(=O)CS2)C(=O)c1c[nH]c2ccccc12 (stereo not given),-30%,-16%
CN(C)CCNC(C(=O)O)c1c[nH]c2cc(F)ccc12 (stereo not given),4%,-9%
CCN(Cc1ccccc1)S(=O)(=O)c1ccc2c(c1)CC(C)N2C(=O)C1CCC1 (stereo not given),-3%,?
c1ccc(-c2nc(N3CCCC3)c3ccccc3n2)nc1,?,?
CC(C)CNC(=O)C(=O)Nc1cccc2[nH]ccc12,0%,156%[activator]
COc1ccc(-c2cc(C(=O)O)c3cccc(C)c3n2)cc1,10%,35%[activator]
CCOc1ccccc1NC(=O)N1CCN(Cc2nc3ccc(C)cc3o2)CC1,-13%,-17%
COCc1cc(C)nc2sc3c(c12)NC(c1ccc(O)c(OC)c1)N(c1ccccc1)C3=O (stereo not given),45%[activator],112%[activator]
COc1ccc2c(c1)c1c(c(=O)n(-c3ccc(OC)c(OC)c3)c(=O)n1Cc1ccc(C)cc1)n2C,-12%,-7%
O=C(Nc1cccc(Cl)c1F)c1cc(S(=O)(=O)N2CCOCC2)c(Cl)cc1Cl,-11%,4%

# Entries shown so far containing a thiophene ring, fused or not:
SMILES,2A Renilla,StopGo FLuc
Cc1nn(C(C)C(=O)Nc2cccc(F)c2)c(=O)c2c1sc1ccccc12 (stereo not given),32%[activator],-25%
O=c1c2c3c(sc2n(Cc2ccc(F)cc2Cl)c(=O)n1-c1ccc(Cl)cc1)CCC3,-9%,-9%
COCc1cc(C)nc2sc3c(c12)NC(c1ccc(O)c(OC)c1)N(c1ccccc1)C3=O (stereo not given),45%[activator],112%[activator]

# Next part
SMILES,2A Renilla,StopGo FLuc
C=C(C)COc1ccc2c(C)c(CC(=O)Nc3ccc4c(c3)OCCO4)c(=O)oc2c1,-9%,141%[activator]
Cc1cc(=O)n2[nH]c(CN(C(=O)c3ccc(F)cc3)c3ccc(Cl)cc3)nc2n1,16%,8%
COc1ccccc1NC(=O)CSc1nccc(-c2ccc(OC(F)F)cc2)n1,?,?
Oc1ccc(C2(c3cccc(F)c3)CCCCC2)cc1,2%,21%
CC(C)NC(=O)Cn1ccc2cc(S(=O)(=O)N3CCCCCC3)ccc21,48%[activator],-6%
CC(Cl)C(=O)NC1(C#N)CCCCC1 (stereo not given),21%,-6%
Cc1ccc(SCc2cc(=O)[nH]c(N3CCN(c4ccccc4F)CC3)n2)cc1,-22%,-11%
CCOc1ccc(CNC(=O)CN2C(=O)C3CCCCN3c3ccc(C(=O)N4CCCC4)cc32)cc1 (stereo not given),56%[activator],-3%
COc1cccc(CN2CCN(C)CC2)c1OC,2%,-3%
COc1ccccc1CNC(=O)NC(c1ccccc1)c1ccccc1,3%,1%
Cc1ccc(C)c(NC(=O)CSc2nc3c([nH]c4ccccc43)c(=O)n2-c2ccc(F)cc2)c1,-3%,-3%
Cc1[nH]c2ccccc2c1C(=O)CSc1nnc(CC(C)c2ccccc2)o1 (stereo not given),2%,-2%
Cc1cc(C)c2c(n1)nn1c(C)c(CCC(=O)NCc3ccccc3Cl)c(C)nc21,18%,45%[activator]
Cc1cccc(-n2c3nc(=O)n(C)c(=O)c-3cc3ccc(Cl)cc32)c1C,-4%,-10%
Cc1ccc(C(=O)/C=C/c2cc3ccccc3nc2N2CCOCC2)cc1,-2%,-3%
Cc1ccc(NC(=O)CCc2ncc(-c3c(F)cccc3F)o2)cc1C,-6%,6%
O=C(COc1ccccc1F)Nc1ccccc1OCc1cc(=O)n2ccccc2n1,-10%,-20%
CSc1ccc(-c2c(C#N)c(N)nc3c2CCCC3)cc1,-4%,-9%
CCc1ccccc1NC(=O)C(NS(=O)(=O)c1ccc2c(c1)CCC(=O)N2)c1ccccc1 (stereo not given),-10%,-25%
Cc1cccc(C)c1NC(=O)CC12CCCN1CCC2,-10%,-14%

# A draw from above in order of length of the SMILES, rising.
SMILES,2A Renilla,StopGo FLuc
CC(C)NC(=O)Cn1ccc2cc(S(=O)(=O)N3CCCCCC3)ccc21,48%[activator],-6%
Cc1cc(C)c2c(n1)nn1c(C)c(CCC(=O)NCc3ccccc3Cl)c(C)nc21,18%,45%[activator]
CCc1ccccc1NC(=O)C(NS(=O)(=O)c1ccc2c(c1)CCC(=O)N2)c1ccccc1 (stereo not given),-10%,-25%

# New compounds follow.
SMILES,2A Renilla,StopGo FLuc
CCCNC(=O)CN1C(=O)COc2ccc(S(=O)(=O)N3CCCCCC3)cc21,3%,?
COC(=O)COc1ccc2c(=O)c(-c3ccc4c(c3)OCCO4)coc2c1,-9%,13%
N#Cc1ccc(CN2CCc3cc(S(=O)(=O)N4CCOCC4)ccc32)c(F)c1,-2%,-19%
O=C(NC1CCCCC1)c1ccc(CSc2nc3ccncc3n2Cc2ccc(F)cc2)cc1,-7%,-9%
CCCCOc1ccc(C(=O)NCc2nnnn2-c2ccc(C)c(C)c2)cc1,13%,-7%
COc1ccc(CCNC(=O)c2cccc(-n3cnc4cccnc43)c2C)cc1OC,-10%,7%
CC(=O)NC12CC3CC(C1)CC(C(=O)NCCc1ccc(F)cc1)(C3)C2,7%,0%
Cc1ccn2c(=O)cc(CSc3ccccc3NS(=O)(=O)c3ccc(C(C)C)cc3)nc2c1,41%[activator],22%
Cc1c(CCC(=O)NCCc2ccccc2F)c(=O)oc2c(C)c(O)ccc12,0%,3%
Cc1ccc(NS(=O)(=O)c2c(C)[nH]c(=O)[nH]c2=O)c(C)c1,-11%,-9%
CC(=O)N1CCc2cc(S(=O)(=O)CCC(=O)N3CCN(c4cccc(C)c4C)CC3)ccc21,-8%,-8%
Cc1ccc(C)c(NC(=O)Cc2coc3cc(C)cc(C)c23)c1,12%,-17%
COC(=O)COc1ccc2c(=O)c(Oc3cc(C)cc(C)c3)c(C(F)(F)F)oc2c1,9%,24%
COc1ccc(-c2onc(C)c2C)cc1S(=O)(=O)NC1CCCCC1,138%[activator],-22%
CCC(Sc1ccc2nnc(CCNS(=O)(=O)c3ccc(OC)cc3)n2n1)C(=O)OC (stereo not given),-3%,-6%
O=c1[nH]c(=O)n(CCc2ccccc2)c2nccc(-c3ccccc3Cl)c12,7%,4%
Cc1ccc(-n2ncc(C(=O)N3CCN(c4ncccn4)CC3)c2C2CCN(C(=O)OC(C)(C)C)CC2)cc1,-10%,-16%
COC(=O)CSc1nc2c(c(-c3cccs3)c1C#N)CCCC2,-3%,3%
CCCC(C)NC(=O)c1cc(=O)[nH]c2ccc(S(=O)(=O)N(CC)CC)cc12 (stereo not given),-5%,-2%
CC(NC(=O)Nc1ccccc1C(F)(F)F)c1c(-n2cccc2)sc2c1CCCC2 (stereo not given),-12%,-4%

# By substructure: those above with a COOH group (three)
SMILES,2A Renilla,StopGo FLuc
O=C(Cc1ccc(-c2ccccc2)cc1)NC1(C(=O)O)CCCCC1,-3%,-1%
CN(C)CCNC(C(=O)O)c1c[nH]c2cc(F)ccc12 (stereo not given),4%,-9%
COc1ccc(-c2cc(C(=O)O)c3cccc(C)c3n2)cc1,10%,35%[activator]

# Carrying on:
SMILES,2A Renilla,StopGo FLuc
Oc1ccccc1N1CCN(c2nc(-c3cccnc3)nc3ccccc23)CC1,20%,8%
CCC(=O)Nc1ccc2oc(-c3ccc(OC)c(Br)c3)nc2c1,5%,210%[activator]
COc1ccc(S(=O)(=O)N2CCOCC2)cc1NC(=O)c1cccc(CN2CCCC2=O)c1,6%,-3%
Brc1csc(CNC2CCCc3c2cnn3Cc2ccccc2)c1 (stereo not given),?,?
Cc1cc(NC(=O)N2CC=C(c3c[nH]c4ccccc34)CC2)ccc1Br,-10%,36%[activator]
CC(C)OCCCNC(=O)CN1C(=O)COc2ccc(S(=O)(=O)N3CCOCC3)cc21,-4%,-4%
C=CCCCCCCCCC(=O)NCc1ccco1,1%,-10%
Cc1cccc(-c2cc(Nc3ccccc3)nc(C)n2)c1,0%,222%[activator]
O=C(CCc1ncc(-c2ccccc2Cl)o1)Nc1nccs1,-2%,18%
Cc1ccnc(Sc2nc3c(c(=O)[nH]c(=O)n3C)n2CCCc2ccccc2)n1,9%,3%
O=C(Nc1nc2c(s1)CCCC2)c1nn(Cc2ccccc2)c(=O)c2ccccc12,-1%,16%
CCOc1ccc(C(=O)NCCc2sc(-c3cccc(F)c3)nc2C)cc1OCC,12%,-20%
O=C1C=C(Nc2ccc(C(F)(F)F)cc2)CCC1,4%,15%
CC(CCc1ccccc1)NC(=O)Cn1ncc2c3ccccc3n(Cc3ccccc3F)c2c1=O (stereo not given),-1%,6%
CC(Oc1cccc(Cl)c1)C(=O)NCCc1cccs1 (stereo not given),-1%,15%
CCN(C(=O)c1nn(C)c(=O)c2ccccc12)C(C)c1ccc(F)cc1 (stereo not given),-3%,-17%
O=C1CC(c2ccccc2)Cc2[nH]c(=O)c(C(=O)Nc3ccc(F)cc3)cc21 (stereo not given),-10%,-5%
COc1cc2c(cc1OC)C1=CC3(C(=O)Nc4ccc(C)cc43)C(C#N)=C(N)N1CC2 (stereo not given),20%,-18%
O=S(=O)(NC1=NCN(CCc2ccccc2)CN1)c1ccccc1,-12%,-9%
CC(C)CNC(=O)CCc1ccc(C#N)cc1,4%,2%

# The closing 3 compounds of the section before are carried over, then new ones follow.
SMILES,2A Renilla,StopGo FLuc
COc1cc2c(cc1OC)C1=CC3(C(=O)Nc4ccc(C)cc43)C(C#N)=C(N)N1CC2 (stereo not given),20%,-18%
O=S(=O)(NC1=NCN(CCc2ccccc2)CN1)c1ccccc1,-12%,-9%
CC(C)CNC(=O)CCc1ccc(C#N)cc1,4%,2%
Cc1cc(C(=O)NCc2ccnc(N3CCOCC3)c2)on1,1%,15%
CCN1CCc2c(sc(NC(=O)c3ccc(S(=O)(=O)N(C)C4CCCCC4)cc3)c2C(N)=O)C1,16%,-23%
O=C(C1CCN(c2nc3ccccc3[nH]2)CC1)N1CCN(c2cccc(Cl)c2)CC1,5%,?
COc1ccc(CCNc2oc(COc3ccccc3C)nc2C#N)cc1,21%,20%
CCCOc1ccc(-c2cccc(NS(=O)(=O)c3ccccc3)c2)nn1,189%[activator],138%[activator]
